From PubChem BioAssay
gsp antagonist: qHTS for Antagonists of gsp, the Etiologic Mutation Responsible for Fibrous Dysplasia/McCune-Albright Syndrome: qHTS. gsp-mutant cells, cAMP HTRF, 30 min; control for the full effect not named in the record. Potency, µM (doses to about 76.9 µM), without a hit: at the highest dose activity change, negative = inhibition, usual class: inhibitors. 340,000 compounds, 0.4% hits. AID 624288, 2012; active = falling curve of any shape with a large fitted effect; inconclusive = falling curve, mostly with a smaller effect; inactive = flat or rising curve; cell line not stated here;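 also: intracellular cAMP measured with PDE inhibitor Ro 20-1724 present during compound exposure; potency is read from the fitted curve at half-maximal effect; % is scaled to controls: 0 for no effect and ±100 for the full control effect; nearly all actives have a fitted effect of over 65% in size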
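HTRF cAMP read-out (cAMP-d2 plus anti-cAMP antibody-K in lysis buffer, 30 min RT). Before lysis, cells are exposed to compounds with […] for 30 min at 37C in DPBS containing Ca/Mg, BSA and Tween 20.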
Sfp inh: qHTS Assay for Inhibitors of Bacillus subtilis Sfp phosphopantetheinyl transferase (PPTase). Biochemical Sfp PPTase activity, qHTS. Potency, µM, for the others: max response, negative = inhibition, most hits filed as inhibitors. 310,000 compounds, 3.5% hits. 4'-phosphopantetheinyl transferase ffp (Bacillus subtilis), Q9F4F7; active = well fitted inhibition curve with a large enough effect; inconclusive = small, poorly fitted or top-dose-only effect, or another doubt; inactive = no such curve, though single readings can be large or run the other way;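 also: the enzyme is Sfp with the accession as filed and its product quenches rhodamine fluorescence; potency is read from the fitted curve at half-maximal effect; 0% = enzyme reaction without inhibitor and -100% = no enzyme wells; top concentration of the series not given in the record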
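With Hepes-Na pH 7.6 buffer containing 10 mM MgCl2, Sfp (15 nM) modified BHQ-2-YbbR (12.5 uM) using rhodamine-CoA (5 uM). Two reads 30 minutes apart at 525/598 nm yielded each well's rate.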
CtBP-E1A blk: qHTS Assay for Inhibitors of the CtBP/E1A Interaction. activity change, % (no concentration beside the values). AID 651724, 2012. 340,000 compounds, 0.49% hits. CtBP / adenovirus E1A interaction (AlphaScreen). AlphaScreen GST-E1A/His-CtBP binding, 1536-well; hits give low values; control for the full effect not named in the record; in the data active means activity change below about -65%; inconclusive means about -30% to -65%; inactive means above about -30%; also: % is scaled to controls: 0 for no effect and ±100 for the full control effect
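In 5 uL wells, 23 nL compound meets equimolar GST-E1A and His-CtBP (5X stock 125 nM each) for 2 h, 37 °C. Beads (5X, 50 ug/mL) then 1 h, 37 °C, dark.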
TRPV1 PAM: HTS Assay for Compounds that Act as Potentiators of the Vanilloid Receptor 1 | Transient receptor potential cation channel subfamily V member 1 (Homo sapiens), Q8NER1 | potentiation, % at 8.33 µM | 320,000 compounds, 0.02% hits | TRPV1-expressing cells, Fluo-8 calcium influx, capsaicin EC20 potentiation; host cell line not named in the record; control for the full effect not named in the record; active means potentiation above 80%; inconclusive means 30% to 80%; inactive means below 30%; also: 0% is about no effect
Target sequence (Q8NER1 whole entry, looked up): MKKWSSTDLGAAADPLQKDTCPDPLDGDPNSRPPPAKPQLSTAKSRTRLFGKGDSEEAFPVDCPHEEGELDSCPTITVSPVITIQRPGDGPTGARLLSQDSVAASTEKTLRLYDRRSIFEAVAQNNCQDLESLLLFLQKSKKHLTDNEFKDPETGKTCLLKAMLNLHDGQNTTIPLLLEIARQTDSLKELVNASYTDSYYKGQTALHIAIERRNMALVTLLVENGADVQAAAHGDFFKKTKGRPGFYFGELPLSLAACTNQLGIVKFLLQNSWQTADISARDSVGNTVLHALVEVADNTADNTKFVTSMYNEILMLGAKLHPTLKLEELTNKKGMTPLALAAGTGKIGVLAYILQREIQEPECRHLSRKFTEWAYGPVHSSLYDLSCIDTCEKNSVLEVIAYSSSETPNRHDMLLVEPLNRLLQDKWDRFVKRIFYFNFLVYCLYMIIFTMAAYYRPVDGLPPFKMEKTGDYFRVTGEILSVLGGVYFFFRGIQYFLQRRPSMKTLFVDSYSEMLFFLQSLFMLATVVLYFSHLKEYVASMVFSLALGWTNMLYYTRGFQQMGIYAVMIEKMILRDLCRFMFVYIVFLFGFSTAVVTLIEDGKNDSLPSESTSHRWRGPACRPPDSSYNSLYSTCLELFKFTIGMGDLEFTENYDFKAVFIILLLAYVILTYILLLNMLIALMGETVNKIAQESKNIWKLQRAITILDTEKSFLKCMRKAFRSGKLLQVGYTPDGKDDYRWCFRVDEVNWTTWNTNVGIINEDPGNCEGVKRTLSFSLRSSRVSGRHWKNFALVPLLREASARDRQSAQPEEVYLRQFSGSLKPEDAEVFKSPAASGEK
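Cells expressing TRPV1 were dye-loaded with Fluo-8 and read kinetically: 10 s baseline, 3 min after compound (agonist portion), then 2 min after EC20 capsaicin (allosteric enhancer portion). Calcium-bound dye fluorescence at 480/520 nm.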
ClpP mod: qHTS Assay for Activators of ClpP | ATP-dependent Clp protease proteolytic subunit (Bacillus subtilis (strain 168)), P80244 | Potency, µM (top dose mostly 57.5 µM), for the others: top-dose activity change, negative = active | 340,000 compounds, 1.9% hits | purified B. subtilis ClpP, FRET peptide cleavage, 20 min | AID 651965, 2013; active = well fitted falling curve with a large enough effect; inconclusive = small, poorly fitted or top-dose-only effect; inactive = no such curve, though single readings can be large or run the other way; also: potency is read from the fitted curve at half-maximal effect; the source files actives as falling curves though it sought activators and does not explain the sign; nearly all actives have a fitted effect of over 65% in size; many hits overshoot -100%
Target sequence (P80244 whole entry, looked up): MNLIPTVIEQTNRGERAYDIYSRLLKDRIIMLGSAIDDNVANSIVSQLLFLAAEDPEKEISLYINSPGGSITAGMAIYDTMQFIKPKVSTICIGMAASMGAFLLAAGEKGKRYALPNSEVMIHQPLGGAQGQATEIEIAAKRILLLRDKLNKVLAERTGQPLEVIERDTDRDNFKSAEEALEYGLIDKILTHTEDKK
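ClpP 10 microg/mL final, pH 8 Tris/KCl buffer with BSA, glycerol, Tween-20; compound pinned in; FRET-FV substrate; RT 20 min; Ex320/Em430; ΔFRET vs ADEP 5.8 microM, DMSO, no enzyme.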
Menin MLL FP FL: qHTS Assay for Inhibitors Targeting the Menin-MLL Interaction in MLL Related Leukemias: Competition With Fluorescein Labeled MLL-derived Peptide | Fluorescence polarization, fluorescein-MLL peptide displacement from menin | FP activity change, % at 61.4 µM | 290,000 tested, under 10 active | AID 1766, 2009; inconclusive = falling polarisation curve, or a change in total fluorescence; inactive = total fluorescence flat and polarisation flat or rising; no compound was filed as active; the % refers to the polarisation; negative = inhibition;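 also: % of control where 0% means no effect; inhibitors lower the polarisation; unlabelled MLL peptide was the positive control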
gsp agonist: qHTS for Agonist of gsp, the Etiologic Mutation Responsible for Fibrous Dysplasia/McCune-Albright Syndrome: qHTS; gsp mutant cells, cAMP HTRF, 30 min; control for the full effect not named in the record; Potency, µM (highest dose often 76.9 µM), without a hit: at the highest dose activation (cAMP increase), usual class: activators; 340,000 compounds, 0.13% hits; active = well fitted activation curve with a large enough effect; inconclusive = small, poorly fitted or top-dose-only effect, or another doubt; inactive = no such curve, though single readings can be large or run the other way; cell line not stated here;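 also: phosphodiesterase inhibitor Ro 20-1724 added with compounds to block cAMP breakdown; potency is read from the fitted curve at half-maximal effect; nearly all actives have a fitted effect of over 60% in size; about a fifth of the inactives were tested at one dose only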
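Cells stably selected in G418 were plated at 2000/well, grown 16-24 hr, then given compounds in DMSO with the PDE inhibitor […] (300 uM solution added) for 30 min at 37C; cAMP was read by HTRF.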
* marks the source's active call; other numbers are inactive results; ? = inconclusive; / = no result given; [ ] = another dose, or the depositor's remark.

SMILES	gsp antagonist	Sfp inh	CtBP-E1A blk	TRPV1 PAM	ClpP mod	Menin MLL FP FL	gsp agonist
CNS(=O)(=O)c1ccc2c(c1)[nH]c(=S)n2C	/	/	0.0	/	-5.0%	/	13.2%
Cc1cc(C)c(C(=O)/C=C/c2cccs2)c(=O)[nH]1	7.1%	21.4%	5.6	-0.4	-0.4%	-1.4	12.0%
O=C(c1ccco1)N1CCN(Cc2cn[nH]c2-c2cccc3ccccc23)CC1	-9.7%	16.3%	/	3.2	1.9%	0.8	-15.6%
CSc1ccc(C(=S)N2CCN(CCO)CC2)cc1	4.5%	8.91µM*	7.4	-0.2	0.3%	4.2	-14.9%
CCCC(=O)N1CCN(c2ccc(NC(=O)c3cc4ccccc4o3)cc2)CC1	?	4.4%	6.8	4.8	1.3%	3.3	-15.7%
C=C1CCN([C@H](C(=O)NCc2ccccc2)C(C)C)S(=O)(=O)c2ccccc21	8.1%	3.2%	-24.2	-2.1	-0.6%	0.3	/
NNC(=O)COc1cccc(Oc2ccccc2)c1	-4.8%	20.0%	-10.0	-7.4	/	-1.1	?
COc1cccc2cc(C(=O)C3=C(O)C(=O)N(CCN(C)C)C3c3ccc(Cl)cc3)oc12 (stereo not given)	16.5%	21.8%	-8.7	-3.6	/	4.0	-1.3%[15.4 µM]
Cc1cc(C)nc(NC2=NCC(=O)N2c2ccc(Cl)cc2)n1	-4.6%	7.7%	-3.4	-20.0	0.5%	0.4	-14.8%
COc1ccc2c(/C=C/c3cc[n+](C)cc3)c[nH]c2c1	?	4.9%	2.5	-0.2	-0.5%	?	4.8%[15.4 µM]
O=C(NC1CC1)C1CCC(=O)N1C1CCCC1 (stereo not given)	8.6%	-11.0%	7.8	-15.7	-0.3%	-2.1	4.2%
Cc1cccc(NC(=S)NCc2ccccc2)c1C	6.9%	7.3%	-14.5	-21.3	-19.5%	-0.2	-24.5%[15.4 µM]
NC(=O)c1ccccc1NC(=O)CN1CCN(Cc2ccccc2)CC1	7.0%	12.6%	-6.1	5.1	-0.5%	-3.2	-9.3%
CCOC(=O)Nc1ccc(NC(=O)c2ccccc2F)cc1	-9.8%	21.6%	/	5.5	12.2%	0.4	0.0%
O=C(CSc1nnc(-c2ccncc2)o1)N1CCc2ccccc2C1	0.4%	23.2%	0.0	14.3	/	2.2	1.0%[15.4 µM]
CC12C(=O)N(c3cccc4cccnc34)C(=O)C1C1C=CC2C1 (stereo not given)	10.0%	-4.3%	6.2	-2.1	-0.5%	1.2	-57.6%[inhibitor]
CCN(CCNC(=O)C1CCN(S(=O)(=O)CC)CC1)c1ccccc1	1.2%	2.1%	7.9	-8.9	-0.4%	2.6	-68.6%[inhibitor]
COc1ccc(C(CNC(=O)c2ccc(C)c(S(=O)(=O)N3CCCCC3)c2)N(C)C)cc1OC (stereo not given)	3.5%	-5.2%	/	3.6	1.0%	-2.5	-6.2%
Cc1cccn2c(=O)c(C=O)c(Sc3ncccn3)nc12	3.1%	10.6%	0.2	2.4	-1.4%	-1.0	-5.3%[15.4 µM]
Nc1nc(SCC(=O)c2c(N)n(Cc3ccccc3)c(=O)[nH]c2=O)n[nH]1	4.3%	10.1%	-6.2	2.0	/	-0.5	-13.6%[15.4 µM]
CCOc1ccc(/C=C2\SC(=S)N(CCC(=O)Nc3cccc(C(=O)O)c3)C2=O)cc1	-10.3%	-6.4%	-0.9	-0.1	/	-2.6	5.3%
Cc1csc(=O)n1CC(=O)OCC(=O)Nc1ccc(F)c(F)c1F	/	/	4.1	/	-1.6%	/	-87.2%[inhibitor]
O=C(c1ccco1)n1nc(-c2ccccc2)nc1NCc1ccco1	-2.4%	?	-1.6	-14.3	15.3%	-0.5	2.7%
CC(C)[C@H](NC(=O)[C@@H]1Cc2ccccc2CN1C(=O)OC(C)(C)C)C(=O)NCc1ccco1	9.0%	3.2%	3.3	-0.7	/	/	-30.2%
COc1cc(C2Nc3cc(Cl)c(S(N)(=O)=O)cc3S(=O)(=O)N2)ccc1OCc1ccccc1 (stereo not given)	-19.8%	26.8%	0.5	10.5	0.8%	0.6	-13.4%
CCCCn1c(N)c(N(CCC(C)C)C(=O)CSc2nnc3ccccn23)c(=O)[nH]c1=O	-1.8%	19.5%	-0.1	26.0	-8.1%	-1.9	?
C=CCn1cc([N+](=O)[O-])nc1C	7.8%	-3.0%	21.6	2.8	-0.4%	2.7	4.8%
O=C(c1ccc2c(c1)OCO2)C1CCCN(Cc2cccn2-c2cccnc2)C1 (stereo not given)	-0.9%	7.5%	-7.2	5.0	35.5µM*	5.1	19.4%[15.4 µM]
Cc1cc(C(=O)CCl)c(C)n1-c1cccc(S(=O)(=O)N2CCOCC2)c1	9.4%	-14.7%	-91.4*	25.5	/	-0.7	-1.2%[15.4 µM]
CN1C(=O)SC(Nc2ccc(F)cc2)C1=O (stereo not given)	17.0%	15.7%	1.7	-3.1	-1.0%	2.2	-47.8%[inhibitor]
O=C(Nc1ccccc1Oc1cccnc1)C1CCCN(C/C=C/c2ccc(F)cc2)C1 (stereo not given)	-10.3%	-0.9%	-5.0	-4.2	0.4%	4.7	-59.2%[inhibitor]
CCCNS(=O)(=O)c1ccc(CCC(=O)N2CCCC2)cc1	2.1%	11.7%	-10.6	8.9	/	0.9	6.7%[15.4 µM]
O=C(NNC(=O)c1ccccc1O)c1ccc(Cl)c(S(=O)(=O)N2CCCCC2)c1	-13.5%	/	-29.6	26.6	/	/	0.9%[15.4 µM]
CCOc1ccc(N(CC(=O)NCCSCc2ccccc2)S(C)(=O)=O)cc1	-20.9%	8.0%	/	-0.4	-0.7%	-0.4	-5.8%
Cc1cc(/C=N/NC(=O)c2ccc(O)cc2)c(C)n1C1CC1	-15.1%	11.8%	/	10.4	/	4.3	-6.0%[15.4 µM]
CCC[C@H]1CC(=O)C=C(c2ccc(OC)cc2)ON1C(=O)OC(C)(C)C	-6.7%	/	-0.8	/	-14.4%	/	/
COc1cc(CN2CCC(CCC(=O)NC3CC3)CC2)cc(Cl)c1OC	9.9%	-4.9%	0.1	-3.1	0.5%	-0.6	-24.2%
Nc1ccc(Oc2ccccc2-c2ccccc2)cc1	0.0%	/	-21.0	/	/	/	-3.4%[15.4 µM]
CC(=O)c1ccc(OC(=O)N2CCOCC2)cc1	-6.4%	8.0%	-0.3	8.6	1.3%	1.5	-0.8%[15.4 µM]
CCCNC(=O)c1nn2c(C(F)(F)F)cc(-c3ccccc3)nc2c1Br	?	14.9%	-28.5	-27.9	-4.6%	-0.3	?
COc1cccc(-n2c(Cn3nc(C(F)F)cc3C(F)F)n[nH]c2=S)c1	5.3%	-15.8%	-11.5	-17.7	1.2%	2.2	-10.1%
Cc1cccc(NC(=O)c2cnn(-c3ccccc3)c2C)c1C	-6.2%	-6.8%	2.2	-4.7	-1.7%	0.0	-5.8%[15.4 µM]
O=C(COC(=O)C1(c2ccccc2)CCCC1)N1CCNC1=O	1.0%	/	/	-17.6	-1.7%	/	-17.1%
CC(C)C(=O)Nc1cccc(C(=O)Nc2nncs2)c1	-8.6%	11.3%	-0.1	0.4	-2.4%	3.3	-2.5%
CCNC(=O)CC1C(=O)N(c2ccccc2)C(=O)N1CCC(C)C (stereo not given)	-4.1%[15.4 µM]	-10.1%	-3.4	-5.2	-2.1%	4.1	2.1%
Cc1ccc(Oc2nccc(-c3ccc(Cl)cc3)n2)cc1	2.8%	-1.7%	12.8	-4.5	1.8%	1.4	-26.3%
Cc1ccc(O)c(NC(=O)c2cc(C)no2)c1	2.0%	-7.1%	7.1	-2.5	/	-0.5	-0.9%[15.4 µM]
CCOc1ccc(S(=O)(=O)n2nc(C)cc2C)c2ccccc12	-18.9%	14.3%	13.8	-10.6	-8.5%	0.5	-22.1%

As entered above.
CCOc1ccc(S(=O)(=O)n2nc(C)cc2C)c2ccccc12 in gsp antagonist = -18.9%
Cc1ccc(O)c(NC(=O)c2cc(C)no2)c1 in TRPV1 PAM = -2.5
CCNC(=O)CC1C(=O)N(c2ccccc2)C(=O)N1CCC(C)C (stereo not given) in Sfp inh = -10.1%

Arranged by the number under Sfp inh (high to low): 5 of the compounds above.
| Compound | Sfp inh |
| --- | --- |
| CCOc1ccc(S(=O)(=O)n2nc(C)cc2C)c2ccccc12 | 14.3% |
| CC(C)C(=O)Nc1cccc(C(=O)Nc2nncs2)c1 | 11.3% |
| Cc1ccc(Oc2nccc(-c3ccc(Cl)cc3)n2)cc1 | -1.7% |
| CCNC(=O)CC1C(=O)N(c2ccccc2)C(=O)N1CCC(C)C (stereo not given) | -10.1% |
| COc1cccc(-n2c(Cn3nc(C(F)F)cc3C(F)F)n[nH]c2=S)c1 | -15.8% |

Record cards, from the list above. Order of screens: gsp antagonist	Sfp inh	CtBP-E1A blk	TRPV1 PAM	ClpP mod	Menin MLL FP FL	gsp agonist
Listed for Cc1csc(=O)n1CC(=O)OCC(=O)Nc1ccc(F)c(F)c1F = /	/	4.1	/	-1.6%	/	-87.2%[inhibitor]
Listed for CCC[C@H]1CC(=O)C=C(c2ccc(OC)cc2)ON1C(=O)OC(C)(C)C = -6.7%	/	-0.8	/	-14.4%	/	/
